KCNQ2 inh = KCNQ2 potassium channel inhibitors, primary screen, cell-based, CHO-K1, FluxOR thallium flux, B-score (AID 2156). 20 min; active compounds read low; only compounds with negative scores are shown here; some inactives read as strong as hits. B-score at 10 µM. O88943. hit rate 1.1% among 310,000;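 active = fluorescence ratio B-score at most minus 3 library SDs, with starting brightness B-score within 2 library SDs, cut at about -5.5 in these data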
Target sequence (O88943 whole entry, looked up): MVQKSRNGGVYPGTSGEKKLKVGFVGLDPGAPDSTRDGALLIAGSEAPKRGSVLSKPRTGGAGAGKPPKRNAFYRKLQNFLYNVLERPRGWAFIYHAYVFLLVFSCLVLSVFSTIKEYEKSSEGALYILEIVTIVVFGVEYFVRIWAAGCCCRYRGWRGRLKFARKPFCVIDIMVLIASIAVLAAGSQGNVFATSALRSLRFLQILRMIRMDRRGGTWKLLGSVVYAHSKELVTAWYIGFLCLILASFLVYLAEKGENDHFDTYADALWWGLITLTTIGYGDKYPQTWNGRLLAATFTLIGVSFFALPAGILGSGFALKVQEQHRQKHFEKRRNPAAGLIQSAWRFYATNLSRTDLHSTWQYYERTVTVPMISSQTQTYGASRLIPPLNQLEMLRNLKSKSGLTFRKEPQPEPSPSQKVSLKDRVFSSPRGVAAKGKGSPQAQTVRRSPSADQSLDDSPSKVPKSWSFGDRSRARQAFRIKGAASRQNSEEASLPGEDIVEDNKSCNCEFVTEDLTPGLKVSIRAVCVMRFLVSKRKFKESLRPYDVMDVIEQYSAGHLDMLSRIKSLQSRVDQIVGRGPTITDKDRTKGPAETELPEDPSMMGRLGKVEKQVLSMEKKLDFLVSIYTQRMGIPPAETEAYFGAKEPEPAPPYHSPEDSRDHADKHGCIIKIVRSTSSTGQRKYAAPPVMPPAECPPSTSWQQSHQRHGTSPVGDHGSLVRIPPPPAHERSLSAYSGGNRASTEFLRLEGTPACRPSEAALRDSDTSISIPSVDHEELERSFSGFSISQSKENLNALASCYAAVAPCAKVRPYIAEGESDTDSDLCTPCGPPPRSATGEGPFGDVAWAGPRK
KCNQ2 inh baseline = further read-out of KCNQ2 inh, marked with its call; B-score; measured here: initial fluorescence intensity artifact check;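 brightness before thallium and not channel activity; 0 = typical well and far values either way flag optical interference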
An asterisk follows results filed as active; i = inactive.

The opening 5 compounds as a preview:
SMILES	KCNQ2 inh	KCNQ2 inh baseline
Cc1cccc(N(CC(=O)NC2CCCC2)C(=O)CS(=O)CC(=O)Nc2ccc3c(c2)OCO3)c1 (stereo not drawn)	i	1.9
O=C(NCc1cccc(F)c1)C1CCC(=O)N(C2CC2)C1 (stereo not drawn)	i	1.4
O=C(NCC(=O)N1CCCCC1)c1ccc(Br)o1	i	-0.8
O=C(CSC1=Nc2ccccc2C2CC=NN12)Nc1ccc(F)cc1Cl (stereo not drawn)	i	0.19
Cc1ccc(OC(=O)C2c3ccccc3Oc3ccccc32)cc1C	i	-0.15

All compounds of this part, from the start:
SMILES	KCNQ2 inh	KCNQ2 inh baseline
Cc1cccc(N(CC(=O)NC2CCCC2)C(=O)CS(=O)CC(=O)Nc2ccc3c(c2)OCO3)c1 (stereo not drawn)	i	1.9
O=C(NCc1cccc(F)c1)C1CCC(=O)N(C2CC2)C1 (stereo not drawn)	i	1.4
O=C(NCC(=O)N1CCCCC1)c1ccc(Br)o1	i	-0.8
O=C(CSC1=Nc2ccccc2C2CC=NN12)Nc1ccc(F)cc1Cl (stereo not drawn)	i	0.19
Cc1ccc(OC(=O)C2c3ccccc3Oc3ccccc32)cc1C	i	-0.15
O=C(Cn1c(=O)c2cccn2c2ccccc21)Nc1ccc(F)cc1F	i	0.11
O=C(NCc1ccccc1)C1=C[C@@H](c2ccc(Br)cc2)C[C@@H](OCCCCO)O1	i	0.23
Nc1cc(-c2ccc(Cl)cc2)nn1S(=O)(=O)c1ccccc1	i	-0.02
O=C1CSC(=S)N1/N=C/c1cc(Br)c(O)c(Br)c1	i	24
Cc1ccc(C(=O)Nn2cnnc2)cc1[N+](=O)[O-]	i	-0.04
COc1ccccc1NC(=O)C(=O)NCC(c1ccco1)N1CCc2ccccc21 (stereo not drawn)	-7.2*	-0.58*
O=C(O)c1nn(-c2ccc(Cl)cc2)ccc1=O	i	1.5
CCC(C(=O)OCC(=O)Nc1ccc(Cl)c(S(=O)(=O)N(C)C)c1)c1ccccc1 (stereo not drawn)	i	0.27
C/C(=N\NC(=O)CCc1ccccc1)c1ccc(Br)cc1	i	-1.6
O=C(CSc1nnnn1-c1ccc(O)cc1)Nc1ccc(N2CCOCC2)c(Cl)c1	i	2.7
Cc1cccc(NC(=S)NCc2cccn2C)c1	i	0.55
Cc1nc2ccc(C(=O)N3CCN(c4ccccc4)CC3)cc2s1	i	-0.66
CC(C)N1CC=C2C(C#N)=C(N)C(C#N)(C#N)[C@H](c3ccoc3)[C@H]2C1	i	16
O=C(C1Cc2ccccc2CN1C(=O)c1ccccc1)N1CCN(c2ccccc2)CC1 (stereo not drawn)	i	-0.86
CCc1ccc(-c2cc(C)no2)cc1S(=O)(=O)N1CCN(c2ccccc2F)CC1	i	0.02
COc1ccccc1NC(=O)c1sc(Cl)nc1C	i	0.3
O=C1C2C3C=CC(C4CC34)C2C(=O)N1c1ccc2c(c1)OCO2 (stereo not drawn)	i	-0.38
CCOC(=O)c1ccccc1NC(=O)COC(=O)C1CC(=O)N(CCc2ccccc2)C1 (stereo not drawn)	i	3.1
COc1ccc(/C=C2\SC(=S)N(CCC(=O)Nc3ccccc3C(=O)O)C2=O)cc1	i	1.1

Compound profiles, from the list above. Screens in order: KCNQ2 inh, KCNQ2 inh baseline
Shown for CCOC(=O)c1ccccc1NC(=O)COC(=O)C1CC(=O)N(CCc2ccccc2)C1 (stereo not drawn) → i, 3.1
Shown for Cc1cccc(N(CC(=O)NC2CCCC2)C(=O)CS(=O)CC(=O)Nc2ccc3c(c2)OCO3)c1 (stereo not drawn) → i, 1.9
Shown for CC(C)N1CC=C2C(C#N)=C(N)C(C#N)(C#N)[C@H](c3ccoc3)[C@H]2C1 → i, 16

The listing continues:
SMILES	KCNQ2 inh	KCNQ2 inh baseline
O=C(c1cccc(Br)c1)N1CCN(S(=O)(=O)N2CCOCC2)CC1	i	-0.18
Cc1ccc(C)c(N2CCN(C(=O)C3CCN(c4nc(C)cc(C)n4)CC3)CC2)c1	i	-1.9
COc1ccc(CNC(=O)C/C(C)=N/NC(=O)c2ccc(OC)cc2OC)cc1	i	1.1
O=C(Nc1cccc(-c2nc3ccccc3[nH]2)c1)c1ccco1	i	-0.19
Cc1occc1C(=O)NN=C1C2CC3CC(C2)CC1C3	i	-0.63
CCn1cc([N+](=O)[O-])c(C(=O)NCc2ccc(Cl)cc2)n1	i	0.65
Cn1c(=O)[nH]c(=O)c2c1nc(N1CCN(c3cccc(Cl)c3)CC1)n2CCCc1ccccc1	i	-0.24
O=C(CSc1nnc(-c2ccncc2)n1Cc1ccco1)N1c2ccccc2Sc2ccc(Cl)cc21	i	-1
COc1ccc2c(C)cc(SCC(=O)Nc3cccnc3Cl)nc2c1	i	-0.93
Cc1cc(C)n(-c2nc3c(c(=O)[nH]c(=O)n3C)n2Cc2ccccc2)n1	i	1.3
CC(C)OC(=O)c1c(NC(=O)c2cnn3c2NC(c2ccccc2)CC3C(F)(F)F)sc2c1CCCC2 (stereo not drawn)	i	0.48
Cc1c(Cl)cccc1NC(=S)N1CCOCC1	i	-0.5
Cc1cc(C)cc(C(=O)NCC(=O)OCC(=O)Nc2ccc(C)cc2Br)c1	i	-0.5
COc1ccc(C2CCN(CC(=O)N(C)C)CC2O)cc1 (stereo not drawn)	i	-0.1
Cc1ccc(NC(=O)/C=C\C(=O)O)c([N+](=O)[O-])c1	i	1.4
O=C(C1CCN(S(=O)(=O)N2CCC3(CC2)OCCO3)CC1)N1CCc2ccccc2C1	i	0.02
COc1ccc([N+](=O)[O-])cc1N(CC(=O)Nc1ccccc1C(=O)N1CCCC1)S(C)(=O)=O	i	-0.12
CCCS(=O)(=O)Nc1cccc(-c2cn3c(n2)SCC3)c1	i	0.25
COc1cccc(C(=O)NC2CCCN(C3Cc4ccccc4C3)C2)c1OC (stereo not drawn)	i	3.6
CCCCCC(/C=N/Nc1ccc(S(=O)(=O)N2CCOCC2)cc1[N+](=O)[O-])=C\c1ccccc1	i	-0.61
Cc1cccc(C)c1NC(=S)N(Cc1ccccc1)Cc1cccnc1	i	-0.2
COC(=O)c1cc(=O)nc2sccn12	i	0.04
CCOC(=O)c1[nH]c2ccc(OC)cc2c1NC(=O)N1CCOCC1	i	-2.3
O=C(c1ccccc1)c1cc([N+](=O)[O-])ccc1N1CCCC1	i	0.38

Some of these compounds in order of the KCNQ2 inh baseline value, ascending:
mol	KCNQ2 inh baseline
Cc1cc(C)cc(C(=O)NCC(=O)OCC(=O)Nc2ccc(C)cc2Br)c1	-0.5
O=C(C1CCN(S(=O)(=O)N2CCC3(CC2)OCCO3)CC1)N1CCc2ccccc2C1	0.02
O=C(Cn1c(=O)c2cccn2c2ccccc21)Nc1ccc(F)cc1F	0.11

(cont.)
SMILES	KCNQ2 inh	KCNQ2 inh baseline
CCN(CC)c1ccc(N=Cc2c(C)[nH]c3ccccc23)cc1	i	2
O=C(NC(=O)c1ccccc1)Nc1cccc(S(=O)(=O)N2CCCCC2)c1	i	-1.4
O=C1C(=O)N(Cc2ccccc2)C(=O)N1CCN1C(=O)c2ccccc2C1=O	i	0.11
COc1ccc(/C=N/NC(=S)Nc2ccccc2)cc1	i	0.02
Cc1nn(Cc2c(F)c(F)c(F)c(F)c2F)c(C)c1NC(=O)c1c(-c2ccccc2)nn(-c2ccccc2)c1C	i	0.27
CC1(C)Cc2c(C#N)c(SCCOc3ccccc3)nc(N3CCOCC3)c2CO1	i	1.5
COc1ccc(OC)c(NC(=O)CCCC(=O)NC2CCCCC2)c1	i	-2.5
Cc1cccc(C)c1NC(=O)COc1cccc(/C=N/NC(=O)C(=O)NCc2ccccc2)c1	i	-0.71
CCOC(=S)SCC(=O)Nc1nc(C)c(C)s1	i	0.1
COc1cc(CC(NC(C)=O)C(=O)NC2CCN(C(=O)Nc3ccccc3C)CC2)cc(OC)c1 (stereo not drawn)	i	2.5
COc1ccccc1C(=O)NCC(=O)Nc1ccccc1	i	0.24
O=[N+]([O-])c1cc(S(=O)(=O)N2CCCC2)ccc1N/N=C/c1ccccn1	i	1.4
COc1cccc(C(=O)CC(=O)C(=O)Nc2cc(OC)ccc2OC)c1	i	-0.41
CCOc1ccccc1CNC(=O)CCCC(=O)n1nc(C)c2ccccc21	i	-1
COC(=O)CCC(=O)OC1(C)C(=O)C=C2C=C(C3CC3)N(C(CO)CO)C=C2C1=O (stereo not drawn)	i	-0.7
CCOc1ccc(C(=O)CN2CCN(S(=O)(=O)c3ccc(F)cc3)CC2)cc1	i	-0.84
CCCCn1c(NCc2ccccc2O)nc2ccccc21	i	0.12
C/C(=N/OC(=O)c1ccc(Cl)cc1Cl)c1oc(C)nc1C	i	2.1
O=C(CSc1ncn[nH]1)N(C1CCCCC1)C1CCCCC1	i	1.8
COc1ccc(OC)c(S(=O)(=O)N2CCc3ccccc3C2)c1	i	1.8
Cc1ccc(C)c(NC(=O)c2cc([N+](=O)[O-])cc([N+](=O)[O-])c2)c1	i	0.11
O=C(O)c1ccc(S(=O)(=O)Nc2ccc(F)c(Cl)c2)cc1	i	0.82
CC(OC(=O)c1cc2sccc2n1C)C(=O)NCCc1ccccc1 (stereo not drawn)	i	-0.01
Fc1cc(F)cc(NC(=S)Nc2ccccc2N2CCOCC2)c1	i	0.36

Gathered by group, those above with a cyano group
SMILES	KCNQ2 inh	KCNQ2 inh baseline
CC(C)N1CC=C2C(C#N)=C(N)C(C#N)(C#N)[C@H](c3ccoc3)[C@H]2C1	i	16
CC1(C)Cc2c(C#N)c(SCCOc3ccccc3)nc(N3CCOCC3)c2CO1	i	1.5

Next compounds.
SMILES	KCNQ2 inh	KCNQ2 inh baseline
CC(=O)Oc1ccc(OC(C)=O)c2c1CC(C)=C(C)C2	i	-0.89
CCCCCOC(=O)CCN1C(=O)/C(=C2\SC(=S)N(CCC(=O)OCCCCC)C2=O)SC1=S	i	0.07
CSc1ccc(CN2CCN(C(=O)CC(C)C)CC2)cc1	i	2.4
CCOC(=O)c1c(-c2ccccc2)nnn1-c1nc(OCC)nc(N2CCCCC2)n1	i	-1.9
COc1ccc(C)cc1NC(=O)CN1C(=O)CSc2ccc(S(=O)(=O)N3CCCC3)cc21	i	0.39
Cc1ccc(NC(=O)c2cc(N3C(=O)C4CC=CCC4C3=O)ccc2N2CCOCC2)cc1Cl (stereo not drawn)	i	0.27
CN(CC(=O)Nc1ccc(N2CCOCC2)cc1)CC(=O)Nc1ccccc1C#N	i	-0.17
Cc1ccc(NC(=O)CC2C(=O)NCCN2C(=S)Nc2ccccc2)c(C)c1 (stereo not drawn)	i	1.2
CNC(=S)N(CCO)Cc1cc2cc3c(cc2[nH]c1=O)OCCO3	i	-0.81
COc1ccc(S(=O)(=O)N2CCC(C(=O)Nc3ccc(S(=O)(=O)N4CCCC4)cc3)CC2)cc1OC	i	0.46
CCn1c(SCC(=O)NC(=O)Nc2ccc3c(c2)OCCO3)nnc1-c1cccs1	i	0.05
CCCCc1nc2cc(C(=O)NCc3nccn3CC)ccc2o1	i	-0.88
S=C1NCCc2ccccc2C1c1ccccc1Cl (stereo not drawn)	i	0.74
Cc1ccc(-n2c(SCC(=O)N3Cc4ccccc4CC3C(=O)O)nnc2-c2cccnc2)c(C)c1 (stereo not drawn)	i	0.05
O=C(CCN1C(=O)c2ccccc2C1=O)NCc1ccco1	i	0.62
CCCOc1ccc2oc(=O)c3c(c2c1)CCCN3C(=O)CN1CCN(c2ncccn2)CC1	i	-1.4
CCOC(=O)C1=C(C)NC(=O)NC1c1ccccc1OCc1c(F)cccc1Cl (stereo not drawn)	i	3.7
Cc1ccc(-c2onc3ccc(Br)cc23)cc1	i	0.01
Cc1ccc(SCc2nc(-c3cccnc3)no2)cc1	i	-0.14
Cc1ccc(C(=O)COC(=O)c2ccc3c(c2)C(=O)N(c2cccc4ncccc24)C3=O)cc1	i	0.54
O=C(CSc1nnc2ccccn12)NCCc1ccc(F)cc1	i	-1.9
COc1cc(NC(=O)CSc2nccc(C)n2)c(C(=O)O)cc1OC	i	0.33
Cc1ccc(NS(=O)(=O)c2cc(C(=O)N(C)C)ccc2C)cc1C	i	0.16
CC(C)(C)[C@@H]1C=C(C(N)=O)O[C@H](OCc2ccc(CO)cc2)C1	i	0.4
O=C(CCSCc1ccc(Cl)cc1)NCc1ccco1	i	0.32
O=C(Cc1ccc([N+](=O)[O-])cc1)N1CCc2ccccc2C1	i	0.49
CCOC(=O)C1=C(N)n2c(s/c(=C/c3ccco3)c2=O)=C(C(=O)OC)C1c1ccco1 (stereo not drawn)	i	1.1
CNC(=O)NC(=O)C(c1ccccc1)N(C)CC1COc2ccccc2O1 (stereo not drawn)	i	-2.1
CC(=Nc1ccc(C)cc1)c1sc2ccccc2c1O	i	-1
CCc1noc(C)c1C(=O)N(CCOC)c1c(N)n(CC(C)C)c(=O)[nH]c1=O	i	-0.88
CCOC(=O)C1=NN(c2ccccc2)C2C(=O)N(c3ccccc3OC)C(=O)C12 (stereo not drawn)	i	-1.2
COC(=O)c1cccc(-n2nnnc2SCC(=O)Nc2cc(C)on2)c1	i	0.52
COc1ccc(N=C2NC(=O)/C(=C/C=C/c3ccccc3)S2)cc1	i	-2.4
Cc1ccccc1C(=O)NNC(=O)c1ccc(Br)cc1	i	0.04
O=C1c2cccnc2Oc2ccc(Cl)cc2N1Cc1ccc(F)cc1	i	-0.8
Cc1cc(C)c(C(=O)/C=C/c2ccc(C(C)C)cc2)c(=O)[nH]1	i	-0.29
CN(C)S(=O)(=O)c1ccc(C(=O)NCCSc2ccc(Br)cc2)cc1	i	-0.2
Cc1cc(C)nc(NC(=NCc2ccc3c(c2)OCO3)NC(=O)Nc2ccccc2)n1	i	-0.07
Cc1cc(C)c(OCC(=O)OCC(=O)NCC2CCCCC2)c(C)c1	i	1.3
O=C1/C(=C/c2ccccc2)Nc2ccccc21	i	5.9
COc1cccc(OC)c1C(=O)N1CC(C)OC(C)C1 (stereo not drawn)	i	-0.74
COc1ccc(C(=O)Nc2sc(C)c(C)c2CN2CCOCC2)cc1	i	0.5
O=C(COc1ccc2ccccc2c1)NNC(=O)c1ccc([N+](=O)[O-])cc1	i	0.11
CSc1nc(N(C)NC(=O)c2cccc(C)c2)c2ccccc2n1	i	0.56

Some of the compounds tested; rates above refer to the full screens.
